Screening results as filed in PubChem.
gsp antag – qHTS for Antagonists of gsp, the Etiologic Mutation Responsible for Fibrous Dysplasia/McCune-Albright Syndrome: qHTS; hit rate 0.4% among 340,000; Potency, µM (doses to about 76.9 µM), for inactives: at the highest dose activity change, negative = inhibition, usual class: inhibitors; AID 624288, 2012; gsp-mutant cells, cAMP HTRF, 30 min; control for the full effect not named in the record; active = falling curve of any shape with a large fitted effect; inconclusive = falling curve, mostly with a smaller effect; inactive = flat or rising curve; cell line not stated here;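 note: intracellular cAMP measured with PDE inhibitor Ro 20-1724 present during compound exposure; potency is the fitted concentration of half-maximal effect; % is set by controls: 0 for no effect and ±100 for the full control effect; nearly all actives have a fitted effect of over 65% in size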
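Cells in G418 medium, seeded 16-24 h, 37C; buffer exchange to DPBS + 1 mM CaCl2, 0.5 mM MgCl2, 0.05% BSA; cpds in DMSO + […] (300 uM stock), 30 min 37C; HTRF cAMP detection.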
gsp agonist – qHTS for Agonist of gsp, the Etiologic Mutation Responsible for Fibrous Dysplasia/McCune-Albright Syndrome: qHTS; gsp mutant cells, cAMP HTRF, 30 min; control for the full effect not named in the record; hit rate 0.13% among 340,000; Potency, µM (top dose mostly 76.9 µM), for the others: at the highest dose activation (cAMP increase), usual class: activators; active = well fitted activation curve with a large enough effect; inconclusive = small, poorly fitted or top-dose-only effect, or another doubt; inactive = no such curve, though single readings can be large or run the other way; cell line not stated here;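 note: phosphodiesterase inhibitor Ro 20-1724 added with compounds to block cAMP breakdown; potency is the fitted concentration of half-maximal effect; nearly all actives have a fitted effect of over 60% in size; about a fifth of the inactives were tested at one dose only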
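Cells in DMEM/10% FBS with G418 were pretreated with compounds in DMSO plus […] (300 uM stock) for 30 min at 37C. cAMP was measured by HTRF (cAMP-d2 plus anti-cAMP antibody-K) after 30 min at room temperature.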
Menin-MLL FL inh – qHTS Assay for Inhibitors Targeting the Menin-MLL Interaction in MLL Related Leukemias: Competition With Fluorescein Labeled MLL-derived Peptide | Fluorescence polarization, fluorescein-MLL peptide displacement from menin | FP activity change, % at 61.4 µM | 290,000 tested, under 10 active | AID 1766, 2009; inconclusive = falling polarisation curve, or a change in total fluorescence; inactive = total fluorescence flat and polarisation flat or rising; no compound was filed as active; the % refers to the polarisation; negative = inhibition;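 note: % of control where 0% means no effect; inhibitors lower the polarisation; unlabelled MLL peptide was the positive control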
D2 ag – Beta-Arrestin HTS for Positive Allosteric Modulators of the Human D2 Dopamine Receptor: Agonists | AID 624465, 2012 | D(2) dopamine receptor (Homo sapiens), P14416 | hit rate 0.084% among 360,000 | activation, % (concentration not given with the values) | DiscoveRx PathHunter D2 beta-arrestin, luminescence, 90 min; 100% = 57 uM dopamine signal; in the data active = activation above about 40%; inconclusive = about 15% to 40%; inactive = below about 15%; note: compound concentration not given in the record; the text of the record calls up to 30% inactive
Target sequence (P14416 whole entry, looked up): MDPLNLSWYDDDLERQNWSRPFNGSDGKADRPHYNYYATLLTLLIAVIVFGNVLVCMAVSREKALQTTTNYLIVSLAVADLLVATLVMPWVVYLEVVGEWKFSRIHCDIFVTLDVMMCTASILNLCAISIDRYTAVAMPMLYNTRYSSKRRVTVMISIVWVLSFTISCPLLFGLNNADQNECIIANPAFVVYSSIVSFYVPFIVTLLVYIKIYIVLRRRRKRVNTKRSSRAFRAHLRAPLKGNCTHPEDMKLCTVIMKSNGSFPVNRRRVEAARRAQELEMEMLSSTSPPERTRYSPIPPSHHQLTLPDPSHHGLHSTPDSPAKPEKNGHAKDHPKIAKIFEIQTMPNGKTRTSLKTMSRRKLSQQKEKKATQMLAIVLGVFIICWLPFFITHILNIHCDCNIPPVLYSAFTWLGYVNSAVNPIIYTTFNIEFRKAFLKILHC
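DiscoveRx PathHunter D2 beta-arrestin cells (2,100/well) attached overnight, then compound-stimulated 90 min at 37 C in HBSS/10 mM HEPES/0.1% Tween-20 buffer; beta-galactosidase complementation read by luminescence after 1 h at ambient temperature. Dopamine 57 uM final (EC100) as control.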
Sfp inh – qHTS Assay for Inhibitors of Bacillus subtilis Sfp phosphopantetheinyl transferase (PPTase) | 4'-phosphopantetheinyl transferase ffp (Bacillus subtilis), Q9F4F7 | Biochemical Sfp PPTase activity, qHTS | Potency, µM, inactives show max response, negative = inhibition, hits mostly inhibitors | hit rate 3.5% among 310,000 | AID 1490, 2009; active = well fitted inhibition curve with a large enough effect; inconclusive = small, poorly fitted or top-dose-only effect, or another doubt; inactive = no such curve, though single readings can be large or run the other way;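 note: the enzyme is Sfp with the accession as filed and its product quenches rhodamine fluorescence; potency is the fitted concentration of half-maximal effect; 0% = enzyme reaction without inhibitor and -100% = no enzyme wells; top concentration of the series not given in the record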
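Reaction rates are the 30-min fluorescence difference (ex 525, em 598 nm) in wells containing 15 nM Sfp, 5 uM rhodamine-CoA and 12.5 uM BHQ-2-YbbR at pH 7.6 with 10 mM MgCl2.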
PINK1 modulator – A Quantitative High throughput Screen to Identify Chemical Modulators of PINK1 Expression. Potency, µM (highest dose often 76.6 µM), inactives show at the highest dose activation (PINK1 increase), most hits filed as activators. AID 624263, 2012. hit rate 0.2% among 410,000. PINK1 immunofluorescence, high-content cytometry, 24 h; active = well fitted activation curve with a large enough effect; inconclusive = small, poorly fitted or top-dose-only effect; inactive = flat fitted curve, though single readings scatter; cell line not stated here;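 note: potency is the fitted concentration of half-maximal effect; % of control where 0% means no effect; nearly all actives have a fitted effect of over 65% in size; a mitochondrial uncoupler was the plate control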
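Fluorescence from anti-PINK1 antibody, together with nuclear and cell stains, was scanned on a laser-scanning cytometer. Before staining, stable-line cells were incubated 24 hours with compounds at 5 concentrations; primary antibody 12 h at 10 degrees C.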
ClpP mod – qHTS Assay for Activators of ClpP; purified B. subtilis ClpP, FRET peptide cleavage, 20 min; ATP-dependent Clp protease proteolytic subunit (Bacillus subtilis (strain 168)), P80244; AID 651965, 2013; Potency, µM (titrated, usually from 57.5 µM), for the others: at the top dose activity change, negative = active; hit rate 1.9% among 340,000; active = well fitted falling curve with a large enough effect; inconclusive = small, poorly fitted or top-dose-only effect; inactive = no such curve, though single readings can be large or run the other way; note: potency is the fitted concentration of half-maximal effect; the source files actives as falling curves though it sought activators and does not explain the sign; nearly all actives have a fitted effect of over 65% in size; many hits overshoot -100%
Target sequence (P80244 whole entry, looked up): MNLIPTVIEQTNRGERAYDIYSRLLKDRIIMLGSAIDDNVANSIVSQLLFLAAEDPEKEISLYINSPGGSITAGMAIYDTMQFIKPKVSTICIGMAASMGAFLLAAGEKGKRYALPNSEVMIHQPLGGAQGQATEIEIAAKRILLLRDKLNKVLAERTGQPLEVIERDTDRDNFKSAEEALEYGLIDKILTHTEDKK
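Buffer: 100 mM Tris/HCl pH8, 100 mM KCl, 0.05% low protease BSA, 2.5% glycerol, 0.01% Tween-20. ClpP 10 microg/mL final; 20 min RT; delta FRET normalized to ADEP and DMSO controls.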
Active calls of the source: *; ? = inconclusive; nt = no result given; & = joins results of further samples; [ ] = another dose, or the depositor's remark.

SMILES	gsp antag	gsp agonist	Menin-MLL FL inh	D2 ag	Sfp inh	PINK1 modulator	ClpP mod
COc1ccc(N2CCN(C(=O)c3ccc(CS(=O)(=O)c4ccccc4C)o3)CC2)cc1	-14%	35%	4.4	-1.6	8%	1.2%	1.1%
Cc1oc(-c2nc3ccccc3n2C)cc1C(=O)c1ccccc1	2%	?	1.1	-2.0	22µM*	0.9%	-0.4%
CCc1nnc(NC(=O)Nc2ccc(Cl)cc2)s1	-1%	?	-0.6	-6.0	14%	0.9%	-0.8%
CC1CCN(c2ccc3nnc(CCC(=O)NCc4ccco4)n3n2)CC1	-6%	?	-0.8	-1.4	10%	0.1%	-1.6%
COc1ccc(NC(=O)C2(C)CCN2CC2CCCCC2)cc1OC (stereo unspecified)	nt	nt	nt	-3.0	nt	13%	-3.2%
Cc1ccc(S(=O)(=O)c2nnn3c2nc(N2CCOCC2)c2ccccc23)cc1	17%	28%	-2.0	-3.1	4%	1.4%	-5.6%
Cn1cnnc1Sc1nc2c(c(=O)n(C)c(=O)n2C)n1C	10%	22µM*	nt	0.2	nt	1.3%	-0.3%
COc1cc(NC(=O)c2ccc(OC)c([N+](=O)[O-])c2)ccc1NC(=O)c1cccs1	-12%	-50%	5.1	-3.4	7%	20%	-1.1%
Cc1n[nH]c(C)c1S(=O)(=O)N1CCc2ccccc21	-23%	0%	-5.2	-0.7	-4%	-0.1%	-2.4%
Cc1ccc2sc(NC(=O)CN3C(=O)CCC3=O)nc2c1C	2%	?	-0.1	-2.1	13%	0.5%	-4.5%
O=C(CN1C(=O)CSc2ncccc21)NCCN1CCOCC1	1%	17%	-2.8	-1.8	0%	-0.2%	-2.1%
CCc1cc(C(=O)c2ccc(OC)cc2)c(NC(=O)COCC(=O)O)s1	-13%	-4%	0.1	-4.7	20%	1.3%	-0.1%
Cc1ccc([N+](=O)[O-])cc1NC(=O)c1cccnc1	5%	-16%[15.4 µM]	1.7	-2.9	15%	3.4%	-0.7%
CC1CCCC(C)N1C(=O)CN1CCN(c2nc(-c3ccc(F)cc3)cs2)CC1 (stereo unspecified)	?	-7%	-3.2	1.3	-24%	?	0.0%
COc1ccc(S(=O)(=O)N(C)C[C@H]2Oc3c(NC(=O)C4CCCCC4)cccc3C(=O)N([C@H](C)CO)C[C@@H]2C)cc1	-10%	6%	nt	-1.7	nt	1.8%	0.9%
COC(=O)c1cc(Cl)c(NC(=O)c2ccc(F)cc2)cc1OC	4%	-16%	-0.9	-2.0	22%	14%	-9.5%
Cc1ccccc1NC(=O)c1ccccc1NC(=O)c1ccccc1F	-11%	0%	0.5	2.8	0%	1.6%&1.4%	21%&6.6%
Cc1ccc(C)c2[nH]c(=O)c(C(c3nnnn3Cc3ccccc3)N3CCc4ccccc4C3)cc12 (stereo unspecified)	-10%	4%	-1.1	-3.7	?	?	-12%
Cc1nc2cc(C(F)(F)F)ccc2n1C1CCN(CC(=O)NC(C)(C)C)CC1	2%	-5%	0.9	-0.2	-7%	-2.1%	-0.2%
CC(=O)Nc1ccc(NC(=O)C2CCN(S(C)(=O)=O)CC2)cc1	nt	0%	nt	-0.9	nt	1.4%	0.4%
O=C(C(=O)N1CCOCC1)c1c[nH]c2ccccc12	2%	26%	0.4	1.7	15%	1.7%	nt
Cn1cnnc1SCC(=O)Nc1ccc(OCc2ccccc2)cc1	1%	-8%[15.4 µM]	-3.1	0.6	16%	5.8%	nt
CC(C)CC(=O)Nc1ccc2nn(-c3ccccc3)nc2c1	-18%	21%	3.3	-4.9	5%	5.0%	?
Cc1cccc(C(=O)NC(=S)NNC(=O)c2cccs2)c1	9%	0%	7.8	-4.3	1%	-0.5%	-1.7%
CCOc1ccc(-n2c(=O)c3c(C)c(C)sc3n(CC(=O)NCc3ccco3)c2=O)cc1	-4%	11%	6.0	0.3	-16%	6.6%[38.3 µM]	0.1%

Just Menin-MLL FL inh, for 2 of the compounds above:
| canonical_smiles | Menin-MLL FL inh |
| --- | --- |
| Cn1cnnc1SCC(=O)Nc1ccc(OCc2ccccc2)cc1 | -3.1 |
| Cc1cccc(C(=O)NC(=S)NNC(=O)c2cccs2)c1 | 7.8 |

Next results
SMILES	gsp antag	gsp agonist	Menin-MLL FL inh	D2 ag	Sfp inh	PINK1 modulator	ClpP mod
COc1cccc(C(=O)N2CCOCC2)c1	20%	-17%[15.4 µM]	-3.3	1.0	12%	0.1%	nt
Cc1ccc(-c2nnc(SCC(=O)Nc3ccccc3N3CCOCC3)o2)cc1	-1%	-59%[inhibitor]	6.9	-5.2	-9%	0.5%	-2.8%
O=C(O)c1ccc(/C=N/n2cc(-c3ccccc3)[nH]c2=S)cc1	-1%	-25%	7.3	-5.8	18µM*	0.3%	1.6%
O=C(CC(Sc1ccc(Br)cc1)C(=O)O)c1ccc(F)cc1 (stereo unspecified)	-4%	3%	nt	-5.5	45µM*	0.9%	-8.5%
COc1ccc(Cl)cc1C(=O)Nc1cccc(-c2ccc3nncn3n2)c1	0%	-27%	5.4	-4.8	?	0.3%	-2.6%
COc1ccc(C2C(C(=O)Nc3cc(OC)c(OC)c(OC)c3)c3ccccc3C(=O)N2C)cc1OC (stereo unspecified)	-5%	4%[15.4 µM]	0.2	-5.8	0%	4.3%	nt
CSc1nnc(-c2ccncc2)n1CCCN1CCCC1=O	3%	20%	1.5	-2.2	10%	-1.1%[38.3 µM]	-1.2%
COc1cccc(COCC(O)CN2CCC(C(N)=O)CC2)c1 (stereo unspecified)	-15%	10%[15.4 µM]	1.2	-2.2	7%	-0.1%	-0.8%
CC1=C(C(=O)Nc2ccccc2Cl)C(c2ccc(N(C)C)cc2)NC(=O)N1 (stereo unspecified)	-2%	23%	?	-4.4	-3%	-1.0%	-6.7%
Cc1nn(C)c(Cl)c1NC(=O)OCc1ccccc1	-17%	7%	0.3	0.2	4%	nt	0.0%
Cc1ccc(CN2CCN(Cc3cnn(-c4ccc(Cl)cc4)c3)CC2CCO)o1 (stereo unspecified)	4%	-66%	0.2	1.1	7%	-0.1%	nt
O=C(NCc1n[nH]c(=S)n1-c1ccc(Br)cc1)c1ccc(S(=O)(=O)N2CCCC2)cc1	8%	9%	-1.2	4.0	-1%	-0.8%	-0.8%
COc1cc(C(=O)NNC(=O)C2CC=CCC2C(=O)O)cc(OC)c1OC (stereo unspecified)	6%	18%	3.7	0.3	9%	6.6%	?
CCc1ccc(NC(=O)C(NS(=O)(=O)c2ccc3c(c2)CCN3C(C)=O)C(C)C)cc1 (stereo unspecified)	6%	0%	nt	7.9	3%	0.9%	-2.4%
CCC/C=C1/CCCOC(C(=O)NCCNCCO)(C(F)(F)F)C1 (stereo unspecified)	11%	3%	1.4	-2.0	13%	-0.2%	0.7%
CCOC(=O)c1ccccc1NC(=O)CN(c1ccccc1OCC)S(C)(=O)=O	-23%	-3%	1.1	?	-10%	2.1%[38.3 µM]	-8.3%
CC(=O)c1sc(N/N=C\c2ccc(C)cc2)nc1C	0%	-5%	?	3.1	-20%	2.9%	0.8%
CCCCCC(C(=O)O)C(C)CC(=O)NC1CCCCC1 (stereo unspecified)	4%	?	0.8	1.5	20%	-0.3%	13µM*
CCc1ccccc1NC(=O)CN(C)C(=O)CSc1nnc(Nc2cccc(C)c2)s1	-11%	?	nt	-4.7	-23%	3.9%	2.2%
O=C(O)c1cnc2[nH]c3ccccc3n2c1=O	3%	9%[15.4 µM]	1.1	1.9	13%	-0.3%	nt
COc1ccc(-n2nc(C(=O)NCC(=O)N3CCCC3)c3ccccc3c2=O)cc1	-32%	16%[15.4 µM]	4.9	2.1	1%	-0.3%	nt
Nn1c(SCc2ccccc2)nc2c(cnn2-c2ccccc2)c1=O	-5%	?	2.1	-2.2	19%	1.3%	0.3%
O=C(NC1CCCN(C2Cc3ccccc3C2)C1)c1ccc(F)cc1Cl (stereo unspecified)	-5%	-49%[inhibitor]	0.8	-1.0	9%	1.4%	-1.3%
CCc1c(O)nc(SCC(=O)Nc2ccccc2OC)n(-c2ccccc2C)c1=O	-3%	-6%	nt	-10	0%	0.9%	0.0%
COc1cccc(C(=O)NC(=S)Nc2ccc(Cl)cc2C(=O)O)c1	-6%	-3%[15.4 µM]	-0.2	0.8	50µM*	-0.3%	nt
CCCCN(C)C(=O)C(Cc1ccccc1)NS(=O)(=O)c1ccc2c(c1)CCC(=O)N2 (stereo unspecified)	3%	-70%[inhibitor]	0.9	-1.9	28%	0.7%	-1.7%

Four entries drawn at random from the list so far, as already listed:
SMILES	gsp antag	gsp agonist	Menin-MLL FL inh	D2 ag	Sfp inh	PINK1 modulator	ClpP mod
Cc1cccc(C(=O)NC(=S)NNC(=O)c2cccs2)c1	9%	0%	7.8	-4.3	1%	-0.5%	-1.7%
CCCCN(C)C(=O)C(Cc1ccccc1)NS(=O)(=O)c1ccc2c(c1)CCC(=O)N2 (stereo unspecified)	3%	-70%[inhibitor]	0.9	-1.9	28%	0.7%	-1.7%
Cc1ccc(C)c2[nH]c(=O)c(C(c3nnnn3Cc3ccccc3)N3CCc4ccccc4C3)cc12 (stereo unspecified)	-10%	4%	-1.1	-3.7	?	?	-12%
O=C(CN1C(=O)CSc2ncccc21)NCCN1CCOCC1	1%	17%	-2.8	-1.8	0%	-0.2%	-2.1%
